Bioassay records deposited in PubChem BioAssay by several laboratories.
UCH37 inh: inhibitors of human UCH37 deubiquitinase, primary screen, biochemical, Ub-AMC cleavage, fluorescence. 0.33% of 330,000 active. inhibition, % (no concentration beside the values). Ubiquitin carboxyl-terminal hydrolase isozyme L5 (Homo sapiens), Q9Y5K5. purified proteasome/UCH37;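 active means mean of two replicates above 20%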;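 further: 0% = compound-free wells with enzyme and 100% = wells lacking proteasome; stock transfer was 100 nL into about 20 µL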
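Schedule: 30 min plus 25 min, room temperature / Material: human UCH37 within purified proteasomes / Technique: AMC fluorescence intensity at 355/460 nm / Buffer or medium: pH 7.4 Tris-HCl (50 mM) with ovalbumin, ATP-MgCl2, DTT / Controls: wells without proteasome as full block, compound-free enzyme plus substrate as uninhibited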
ALR H2O2 inh: inhibitors of human ALR sulfhydryl oxidase, primary screen, biochemical, H2O2 detection, HRP-luminol luminescence, single point; FAD-linked sulfhydryl oxidase ALR (Homo sapiens), P55789; purified ALR, DTT oxidation; inhibition, % (no concentration beside the values); 3.8% of 290,000 active;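 active means mean and each replicate at 75% or more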;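 further: stock transfer was 7.5 nL into about 7.5 µL; 0% = neutral wells and 100% = wells with inactivated enzyme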
Target sequence (P55789 whole entry, looked up): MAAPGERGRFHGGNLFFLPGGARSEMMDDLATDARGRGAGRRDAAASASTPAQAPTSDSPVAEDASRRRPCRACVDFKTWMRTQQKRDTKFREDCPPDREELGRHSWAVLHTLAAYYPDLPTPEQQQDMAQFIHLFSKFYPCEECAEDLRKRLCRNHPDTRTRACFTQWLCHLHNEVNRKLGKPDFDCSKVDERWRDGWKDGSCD
Beta2AR agonist: beta2AR agonists driving receptor internalization, primary screen, cell-based, FAP fluorogen, flow cytometry; Beta-2 adrenergic receptor (Homo sapiens), P07550; Am2.2-beta2AR cells; reference of the scale not given here; response, % (no concentration beside the values); 0.43% of 340,000 active;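 active means response above a set limit, near 3 SD of response in nonfluorescent compounds, cut at about 42% in these data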;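 further: stock transfer was 100 nL into about 11 µL; a reference agonist was the positive control; negative values mostly stem from fluorescent compounds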
Target sequence (P07550 whole entry, looked up): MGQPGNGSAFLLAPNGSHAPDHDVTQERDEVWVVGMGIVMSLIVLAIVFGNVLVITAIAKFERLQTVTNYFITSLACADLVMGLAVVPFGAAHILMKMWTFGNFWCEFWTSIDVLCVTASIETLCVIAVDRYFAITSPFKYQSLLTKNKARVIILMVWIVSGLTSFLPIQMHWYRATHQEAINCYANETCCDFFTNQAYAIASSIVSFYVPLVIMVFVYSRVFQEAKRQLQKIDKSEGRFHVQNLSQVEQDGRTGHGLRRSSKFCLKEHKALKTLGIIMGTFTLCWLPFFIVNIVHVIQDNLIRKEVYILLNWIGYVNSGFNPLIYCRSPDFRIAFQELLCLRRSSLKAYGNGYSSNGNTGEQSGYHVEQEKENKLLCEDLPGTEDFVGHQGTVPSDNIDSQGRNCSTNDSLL
LANA-H2B inh: blockers of LANA interaction with H2A/H2B – biochemical, FP readout, HTS, primary screen; Protein LANA1 (Human herpesvirus 8 type P (isolate GK18)), Q9QR71; cell-free LANA-H2A/H2B peptide, fluorescence polarization; inhibition, % (concentration not given with the values); 0.6% of 320,000 active; AID 2629, 2010; in the data active means inhibition mostly above about 10%, no sharp cut-off; inactive means mostly below about 6.7%;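 further: stock transfer was 7.5 nL into about 10 µL; 0% = median of vehicle wells and 100% = median of positive control wells; one replicate is shown; the record names a cut of 25% in any replicate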
FGF22 binding: binders of human FGF22 protein, primary screen, FGF22 synaptogenesis inhibitor project, biophysical, thermal shift, single point | calls only at 9.99 µM | recombinant FGF22 thermal shift, SYPRO orange fluorescence; percent of sucrose octasulfate shift, DMSO zero | 1.5% of 340,000 active | AID 651658, 2012;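 active means melting point raised past a set limit in the mean and every replicate; three in four hits are not shown here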
Ecoli growth: E. coli growth inhibition, primary screen, OD600; Escherichia coli growth, 23 h; stronger effect = lower value; OD600 absorbance (concentration not given with the values); 0.21% of 330,000 active; AID 1053175, 2014;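 active means OD600 absorbance below the run mean of sample wells minus 3.6 SD, in any replicate, cut at about 0.56 in these data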;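 further: stock transfer was 300 nL into about 60 µL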
HNF4A DNA FP: change in binding of human HNF4A to DNA, primary screen, biochemical, fluorescence polarization, FITC-DNA; Hepatocyte nuclear factor 4-alpha (Homo sapiens), P41235; 1 h; activity change, % at 10 µM; 0.3% of 360,000 active; in the data active means activity change above about 30%, passing the limit was not always enough;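 further: controls were the assay level and a saturating level of protein; the project sought stronger binding though the title names inhibitors; some compounds called inactive have numbers as strong as hits; positive values seem to mean higher polarization but the record does not say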
Target sequence (P41235 whole entry, looked up): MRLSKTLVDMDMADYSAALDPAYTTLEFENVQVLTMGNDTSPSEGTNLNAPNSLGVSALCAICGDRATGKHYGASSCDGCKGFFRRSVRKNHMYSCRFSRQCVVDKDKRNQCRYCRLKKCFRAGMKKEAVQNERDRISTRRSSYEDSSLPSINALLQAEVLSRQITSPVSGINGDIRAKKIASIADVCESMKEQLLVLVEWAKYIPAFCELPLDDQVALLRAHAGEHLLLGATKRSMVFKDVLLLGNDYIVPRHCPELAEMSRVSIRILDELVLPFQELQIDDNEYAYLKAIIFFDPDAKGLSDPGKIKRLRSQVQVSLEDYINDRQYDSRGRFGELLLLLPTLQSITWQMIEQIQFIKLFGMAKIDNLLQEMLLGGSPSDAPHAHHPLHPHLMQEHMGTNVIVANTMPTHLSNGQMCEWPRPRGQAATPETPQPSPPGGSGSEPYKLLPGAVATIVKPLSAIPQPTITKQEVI
The depositor's hits bear a star; i = inactive; · = no result given; & = joins results of further samples.

SMILES | UCH37 inh | ALR H2O2 inh | Beta2AR agonist | LANA-H2B inh | FGF22 binding | Ecoli growth | HNF4A DNA FP
CC1(C)CC(=O)C2=C(C1)N(c1ccccc1)C(=O)C2(O)C(F)(F)F (centres undefined) | 6.8 | 2.1 | -1.2 | -1.1 | i | 0.711 | 1.8
O=S(=O)(NCc1cccc(C(F)(F)F)c1)NCc1ccccc1F | 4.7 | -3.3 | -3.8 | -0.4 | i | 0.689 | -1.5
O=C1C(c2ccccc2)NC(=S)N1C1CCCCC1 (centres undefined) | 2.9 | -0.4 | 6.6 | -2.2 | i | 0.693 | -2.6
Cc1ccc(C(=O)OCC(=O)Nc2ccc(C(N)=O)cc2)s1 | 5.9 | 17.7 | 13.6 | 7.2 | i | 0.709 | 0.8
Cc1cc(NCCCOC(C)C)n2c(nc3ccccc32)c1C#N | -376.5 | -16.8 | 3.2 | -1.6 | i | 0.697 | 9.1
CCOC(=O)C(C)c1c(C)[nH]c(=S)[nH]c1=O (centres undefined) | -0.7 | 2.6 | 1.1 | -3.8 | · | 0.73 | -1.3
COc1ccc(C2C(C#N)=C(N)Oc3cc4c(cc32)OCO4)cc1 (centres undefined) | 0.4 | -15.4 | 25.7 | 2.7 | · | 0.632 | -2.6
CCOC(=O)c1c(NC(=O)CSc2nncn2C)sc(C)c1C | 1.8 | 4.4 | 7.9 | 0.4 | · | 0.659 | 5.2
O=C(c1cc2ccccc2oc1=O)N(Cc1ccccc1F)C1CCS(=O)(=O)C1 (centres undefined) | 1.1 | 7.0 | -5.2 | · | i | 0.702 | 0.3
CCn1nnnc1SCC(=O)c1ccc(C)cc1 | 0.6 | 29.6 | -3.5 | 0.7 | · | 0.664 | 0.9
CC1CCCC(NC(=O)COC(=O)CCSc2ccccc2)C1C (centres undefined) | 4.5 | -44.1 | -3.8 | 1.9 | i | 0.697 | 1.4
COC(=O)C1=C(C)N(Cc2ccco2)C(=O)N[C@H]1c1cccc(C(F)(F)F)c1 | -0.1 | -14.4 | · | 3.7 | · | · | ·
Cc1ccc(S(=O)(=O)NCCC(=O)OCC(=O)N(C)c2ccccc2)cc1 | 2.4 | -0.7 | 4.3 | 6.6 | · | 0.65 | -0.9
Cc1ccc(S(=O)(=O)N2CCN(S(=O)(=O)N3CCOCC3)CC2)cc1C | 0.5 | -0.6 | 11.2 | 6.5 | · | 0.658 | -2.7
Cc1nc2c(C(=O)N3CCCC3)cnn2c(C)c1Cc1c(F)cccc1Cl | -35.0 | 34.4 | -21.5 | 4.9 | · | 0.68 | 4.0
c1ccc(-n2cc(CN3CCCC(CN4CCCC4)C3)c(-c3ccc4c(c3)OCO4)n2)cc1 (centres undefined) | · | 7.1 | 15.3 | 21.2* | i | · | 5.9
C=C(C)C(COc1c2occc2cc2ccc(=O)oc12)OC(C)(C)C(O)COc1c2occc2cc2ccc(=O)oc12 (centres undefined) | -0.3 | · | -14.9 | · | i | 0.696 | 4.2
NC(=S)N=Nc1c(O)[nH]c2ccc(F)cc12 | 3.8 | 3.4 | 1.4 | 1.5 | i | 0.658 | -0.1
Cc1ccc(S(=O)(=O)C2(C(=O)NC3CCCC3)CC2)cc1 | 0.4 | 0.6 | -3.1 | 1.1 | · | 0.652 | 4.5
CC[C@@H](C)[C@@H]1CN([C@@H](CN2CCC[C@H]2CN2C(N)=NC[C@@H]2Cc2ccccc2)C(C)C)C(=N)N1CCCC1CCCC1 | 1.2 | -2.0 | 0.7 | -3.9 | · | · | 1.6
C[C@]12c3[nH]c4ccc(Cl)cc4c3CCN1C(=O)[C@@H](CC(=O)NCC13CC4CC(CC(C4)C1)C3)C[C@@H]2C(=O)N1CCCCC1 | 1.0 | · | 0.3 | · | i | 0.708 | 2.3
O=C(COC(=O)Cc1c(Cl)cccc1Cl)NCc1ccco1 | 2.5 | · | -18.4 | -2.2 | i | 0.714 | -8.1
Cc1cc(C)nc(SCc2cn3c(C)cc(C)nc3n2)n1 | -145.6 | -7.0 | -6.1 | 4.4 | i | 0.651 | 0.4
CC(=O)N1CCCC(C(=O)c2ccc(Oc3ccccc3)cc2)C1 (centres undefined) | -0.7 | -18.9 | -22.6 | -1.8 | i | 0.649 | -4.0
COc1ccc(Br)cc1S(=O)(=O)N1CCN=C1C | -0.9 | -7.7 | -3.6 | -5.3 | · | 0.71 | 1.3
O=C(O)c1cccc(NC(=O)c2cn(-c3ccccc3)nc2-c2ccc(F)cc2)c1 | 2.6 | · | 0.8 | 4.2 | · | 0.662 | -0.4
O=C(Nc1ccc(Cl)cc1)Nc1nnc(CSc2ccc(Cl)cc2)s1 | · | -3.4 | 10.7 | -13.6 | i | · | 2.4
Cc1oc(CC(C)C)c(CN)c1C(=O)O | 0.0 | 2.0 | -1.4 | 0.4 | i | 0.68 | -3.0
CC(=O)c1ccc(N2CCN(C(=O)COc3ccc4c(c3)CCC4)CC2)cc1 | 5.2 | 2.5 | 10.9 | 2.5 | i | 0.682 | -9.6
COc1ccc(C)cc1NC(=O)COC(=O)C1CCN(C(=O)c2ccc(Cl)cc2)CC1 | -1.5 | -10.2 | 4.6 | -0.8 | i | 0.673 | 1.1
Cn1c(SCC(=O)Nc2ccc(Cl)cc2)nnc1C1CC1 | 2.5 | · | 3.6 | -1.5 | i | 0.658 | 1.2
CCOC(=O)C1CCN(C(=O)c2cc3cc(Br)ccc3oc2=O)CC1 | -0.1 | -1.8 | -6.5 | 1.4 | i | 0.679 | 0.2
Cc1ccccc1CSc1ccc(-c2ccc3c(c2)OCO3)nn1 | -0.2 | -9.0 | 5.0 | 0.0 | i | 0.658 | 3.4
COc1ccc(OCC(=O)N2CCN(C(=O)Cc3ccccc3)CC2)cc1 | 3.7 | -4.7 | 3.3 | 0.1 | · | 0.733 | -2.3
CCC(C)c1ccc(NC(=O)NCc2cccnc2)cc1 (centres undefined) | · | 48.9 | 6.2 | -7.5 | i | · | 2.4
O=C(/C=C/c1c(Cl)cccc1Cl)Nc1ccncc1 | -1.0 | 8.2 | 3.7 | -0.9 | · | 0.697 | 1.1
Cc1ccc(C(=O)COC(=O)c2cccs2)cc1 | 1.3 | · | 0.5 | 3.0 | · | 0.653 | -2.7
CN(C)C(=O)NC1C=CS(=O)(=O)C1 (centres undefined) | -0.9 | 5.0 | -3.9 | · | · | 0.673 | -2.0
Cc1ccccc1-c1cc(C(=O)NCc2ccc(OC(F)(F)F)cc2)nn1CC1CC(c2cccc([N+](=O)[O-])c2)=NO1 (centres undefined) | 1.7 | 4.0 | -4.9 | -0.1 | i | 0.684 | 8.7
O=C(Cn1c(=S)nc2ccccn21)N1CCc2ccccc2C1 | -0.5 | -3.6 | 4.6 | 2.7 | · | 0.707 | -2.8
COC(=O)[C@@H](NC(=O)NCc1ccc(F)cc1)C(C)C | 1.0 | -4.9 | 9.7 | 5.5 | i | 0.751 | 0.5
CCOC(=O)NN1C(=O)c2ccccc2NC12CCCC2 | i | -4.3 | 2.6 | -14.6 | i | 0.69 | 3.7
CCc1nnc(NC(=O)CSc2nnc(COc3cccc(C)c3)o2)s1 | -0.3 | 15.3 | 3.0 | 18.4 | · | 0.716 | -1.8
COc1ccc(C2=NOC(C(=O)Nc3ccc4c(c3)OCCO4)C2)cc1OC (centres undefined) | 2.3 | -9.4 | -4.6 | -1.8 | i | 0.668 | 5.0
Cc1ccc(OC(=O)CCNC(=O)c2ccccc2Cl)c(Br)c1 | 1.1 | 10.4 | 2.5 | 0.5 | i | 0.623 | -0.2
O=C(CC(=O)Nc1ccccc1[N+](=O)[O-])Nc1ccccc1[N+](=O)[O-] | 3.6 | -9.4 | -8.2 | -3.9 | i | 0.634 | 1.9
CN1C2CCC1/C(=C\c1ccccc1)C(=O)/C2=C\c1ccccc1 | 0.7 | -10.0 | -12.4 | -2.4 | · | 0.68 | 5.5
O=C(CSc1nc2c(c(=O)[nH]1)CN(Cc1ccc(F)cc1)CC2)Nc1ccc(F)cc1 | 2.0 | -3.7 | -0.9 | 2.9 | i | 0.65 | -0.1

The closing two entries of the section before come first, to join the parts:
SMILES | UCH37 inh | ALR H2O2 inh | Beta2AR agonist | LANA-H2B inh | FGF22 binding | Ecoli growth | HNF4A DNA FP
CN1C2CCC1/C(=C\c1ccccc1)C(=O)/C2=C\c1ccccc1 | 0.7 | -10.0 | -12.4 | -2.4 | · | 0.68 | 5.5
O=C(CSc1nc2c(c(=O)[nH]1)CN(Cc1ccc(F)cc1)CC2)Nc1ccc(F)cc1 | 2.0 | -3.7 | -0.9 | 2.9 | i | 0.65 | -0.1
CCCN(C(=O)CSCc1ccccc1C)c1c(N)n(Cc2ccccc2)c(=O)[nH]c1=O | -1.9 | 3.1 | -7.1 | -0.9 | i | 0.651 | -1.1
CCN(C(=O)COC(=O)CNC(=O)c1ccc(C)s1)c1ccccc1 | 0.7 | -10.6 | 2.5 | 3.9 | i | 0.724 | -0.4
CCOC(=O)Cc1csc(NC(=O)COc2ccccc2)n1 | -0.4 | 4.1 | -1.0 | -5.7 | · | 0.642 | 4.3
CC1CCN(c2c(NCC3CCC(C(=O)NCc4ccc(F)cc4)CC3)c(=O)c2=O)CC1 (centres undefined) | 4.0 | · | 4.3 | 1.6 | i | 0.691 | 2.7
Cc1ccc(CN2C(=O)C(CC(C)C)Nc3ncnc(N4CCN(c5ccccc5)CC4)c32)cc1 (centres undefined) | -0.8 | -7.2 | 15.8 | -0.4 | i | 0.721 | -4.1&6.7
O=C(CCCOc1ccccc1)NCc1ccco1 | 1.2 | 86.9* | 0.0 | -0.8 | · | 0.722 | -0.2
O=S(=O)(Nc1ccc2ccccc2n1)c1ccccc1Cl | -52.4 | -4.0 | -4.8 | -6.6 | i | 0.732 | 0.2
CCN(CCn1cccn1)Cc1cn[nH]c1-c1cccc2ccccc12 | 3.8 | -2.4 | 4.6 | 4.0 | i | 0.645 | 3.1
Nc1[nH]c(=O)[nH]c(=O)c1N=Nc1ccccc1Cl | 8.9 | · | -0.3 | -2.1 | i | 0.673 | 6.6
COc1ccccc1-c1nnc(SCC(=O)Nc2cc(C)on2)o1 | -2.0 | -2.6 | 0.6 | 4.8 | · | 0.666 | 0.5
Cc1nn(CC(=O)N2CCN(c3ccccc3)CC2)c(=O)c2cccn12 | 2.0 | -15.7 | 0.8 | -1.1 | i | 0.761 | 4.8
CCCn1c(=O)c(C(=O)Nc2ccccc2C(=O)OCC)c(O)c2ccccc21 | -2.5 | -5.5 | 9.9 | -4.1 | i | 0.738 | -4.6
O=C(COC(=O)c1ccc2c(c1[N+](=O)[O-])C(=O)c1ccccc1C2=O)NC1CC1 | 4.2 | -24.0 | 20.2 | -8.6 | i | 0.625 | -4.0
Cn1c(=O)c2c(ncn2CC(=O)NC(C)(C)C)n(C)c1=O | -2.5 | -1.4 | -1.2 | 1.4 | i | 0.675 | 1.6
S=c1[nH]ccn1-c1cccc(Cl)c1 | 5.9 | 10.8 | 7.0 | -0.9 | i | 0.717 | 3.5
O=C(CCc1nc2ccccc2c(=O)[nH]1)Nc1nnc(SCc2ccc(F)cc2)s1 | 3.7 | -2.0 | -3.6 | -2.7 | i | 0.696 | 2.1
Cc1ccc(OC(=O)COc2ccccc2)c(-n2nc3ccccc3n2)c1 | 0.7 | 2.0 | -5.1 | 2.7 | · | 0.705 | 2.2
CCOC(=O)C(C)n1cnc2c1c(=O)[nH]c(=O)n2C (centres undefined) | 4.6 | · | -2.1 | 1.1 | · | 0.677 | 1.5
CSc1ccc(CN(C)CC(=O)N(C)CC(=O)Nc2ccccc2Br)cc1 | 0.3 | -1.0 | -0.9 | -29.6 | i | 0.667 | -0.2

An excerpt. The share of hits here may be higher or lower than overall.
